KCNQ2 block: KCNQ2 potassium channel inhibitors, primary screen, cell-based, CHO-K1, FluxOR thallium flux, B-score (AID 2156) | 310,000 tested, 1.1% active | O88943 | B-score at 10 µM | 20 min; hits give low values; only compounds with negative scores are shown here; some inactives read as strong as hits;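 active = fluorescence ratio B-score at most minus 3 library SDs, with starting brightness B-score within 2 library SDs, cut at about -5.5 in these data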
Target sequence (O88943 whole entry, looked up): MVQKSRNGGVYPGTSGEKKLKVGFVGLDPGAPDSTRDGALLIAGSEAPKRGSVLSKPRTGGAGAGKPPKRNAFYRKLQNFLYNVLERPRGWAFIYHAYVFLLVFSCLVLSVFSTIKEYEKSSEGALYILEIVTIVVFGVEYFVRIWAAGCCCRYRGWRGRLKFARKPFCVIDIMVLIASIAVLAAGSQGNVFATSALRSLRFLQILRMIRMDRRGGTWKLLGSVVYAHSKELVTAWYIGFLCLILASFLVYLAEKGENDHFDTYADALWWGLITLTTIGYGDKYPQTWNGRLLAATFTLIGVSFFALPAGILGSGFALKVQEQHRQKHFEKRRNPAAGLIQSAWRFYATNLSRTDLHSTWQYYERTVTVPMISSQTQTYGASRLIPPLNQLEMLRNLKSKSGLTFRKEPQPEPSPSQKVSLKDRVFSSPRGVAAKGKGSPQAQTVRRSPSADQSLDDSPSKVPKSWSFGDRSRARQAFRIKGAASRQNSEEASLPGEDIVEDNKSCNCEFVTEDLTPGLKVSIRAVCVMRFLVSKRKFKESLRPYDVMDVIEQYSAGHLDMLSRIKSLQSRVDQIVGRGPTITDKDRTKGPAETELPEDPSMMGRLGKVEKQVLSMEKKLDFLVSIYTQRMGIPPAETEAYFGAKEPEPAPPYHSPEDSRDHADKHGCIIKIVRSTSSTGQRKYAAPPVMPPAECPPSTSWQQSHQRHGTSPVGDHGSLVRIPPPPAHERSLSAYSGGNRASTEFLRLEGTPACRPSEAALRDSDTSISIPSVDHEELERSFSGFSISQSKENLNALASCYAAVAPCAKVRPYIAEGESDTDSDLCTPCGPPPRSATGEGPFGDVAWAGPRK
KCNQ2 block baseline: second read-out of KCNQ2 block, no call of its own (marks repeat the call); B-score; measured here: initial fluorescence intensity artifact check;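 brightness before thallium and not channel activity; 0 = typical well and far values either way flag optical interference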
* = called active by the depositor; i = inactive; & = joins results of further samples.

SMILES	KCNQ2 block	KCNQ2 block baseline
COc1ccc(-c2onc3ccc(C(=O)/C=C/N(C)C)cc23)cc1	i	0.89
CCN(CC)C(=O)c1cn(CCC#N)nc1-c1ccc2c(c1)OCCO2	i	0.39
COc1ccc(NC(=O)C(Cc2ccccc2)n2cccc2)cc1 (stereo unspecified)	i	0.14
Cn1c(=O)[nH]c(=O)c2c1nc(CN1CCN(c3ccccc3F)CC1)n2CCCc1ccccc1	i	2.3
Cc1cc(C)cc(OCC(=O)Nc2ccccc2N2CCCCC2)c1	i	-1.2
CCOC(=O)c1ccc2c(c1)n(CCCS(=O)(=O)[O-])c(/C=C/c1ccc(Cl)cc1)[n+]2CC	i	1.4
CCN(CC)S(=O)(=O)c1ccc(N2CCOCC2)c(NC(=O)COc2ccccc2)c1	-6.8*	0.1*
COC(=O)c1ccc2[nH]c3c(c2c1)CC(C)CC3 (stereo unspecified)	i	0.62
CC(C)NC(=O)CC(=O)N/N=C\c1ccccc1C(=O)O	i	-0.6
CCOc1cc(C(c2c(C)[nH][nH]c2=O)c2c(C)[nH][nH]c2=O)cc([N+](=O)[O-])c1O	i	-0.41
O=C(Cn1cncn1)N/N=C/c1cccc(Cl)c1	i	-0.14
Cn1c(N)c(-c2nc3cccnc3n2C)sc1=S	i	0.45
O=C(COc1ccccc1)NCC(c1ccco1)N1CCCCC1 (stereo unspecified)	i	-1
CC1CCC(N2CC(=O)N(Cc3ccc4c(c3)OCO4)C(c3ccc(F)cc3)C2=O)CC1 (stereo unspecified)	i	0.28
CC1(c2ccc(Cl)cc2Cl)NC(=O)N(CC(=O)Nc2ccc3[nH]c(=O)[nH]c3c2)C1=O (stereo unspecified)	i	1.2
COc1cccc(CNS(=O)(=O)c2ccc3c(c2)CCN3C(=O)C2CC2)c1	i	-0.23
O=C(CN(c1ccc(Cl)cc1)S(=O)(=O)c1ccccc1)N1CCN(c2ccccc2)CC1	-7.4*	0.31*
CCOc1cc(CNc2ccc3c(c2)OCCO3)cc(Br)c1OCC	i	-0.12
COc1ccc(-c2nc(CN3CCN(c4cc(C)nc(C)c4)CC3)c(C)o2)c2ccccc12	i	0.42
COc1cccc(S(=O)(=O)NCC(=O)N2CCCCCC2)c1	i	0.57
COc1cc(S(=O)(=O)N2CCN(C(=O)c3ccco3)CC2)c(OC)cc1C	i	0.83
O=C(Nc1ccccc1)c1csc(-c2ccccc2)n1	i	-1.2
O=C(CSc1ncn[nH]1)Nc1ccc([N+](=O)[O-])cc1Br	i	3.4
CC(C)C[C@@H]1NC(=O)N(CCN2CCOCC2)C1=O	i	1.6
COc1ccc(C(CNC(=O)c2oc3ccc(C)cc3c2C)N2CCCCC2)cc1 (stereo unspecified)	i	-0.05

An excerpt from above in order of their number in KCNQ2 block baseline, highest first:
SMILES	KCNQ2 block	KCNQ2 block baseline
CCN(CC)S(=O)(=O)c1ccc(N2CCOCC2)c(NC(=O)COc2ccccc2)c1	-6.8*	0.1*
O=C(Cn1cncn1)N/N=C/c1cccc(Cl)c1	i	-0.14
O=C(Nc1ccccc1)c1csc(-c2ccccc2)n1	i	-1.2

(list continues)
SMILES	KCNQ2 block	KCNQ2 block baseline
COc1ccc(C)cc1N(C)C(=O)c1coc(=O)c2ccccc12	i	1.1
CC(C)c1ccc(CN2CCC(Oc3ccc(C(=O)N4CCCC4)cc3)CC2)cc1	i	0.46
CC1CN(C(=O)CN2C(=O)NC3(CCCC3)C2=O)C(=Nc2cccc(S(=O)(=O)N(C)C)c2)S1 (stereo unspecified)	i	0.96
COc1ccc(C(=O)Nc2c(N)nc(SCC(=O)NCC3CCCO3)[nH]c2=O)cc1 (stereo unspecified)	i	1.2
COC(=O)c1ccc2nc(-c3ccc4c(c3)OCO4)cn2c1	i	-0.67
COc1ccc(CN2CCN(C(C)C(=O)NC(C)c3ccc(F)cc3)CC2)cc1F (stereo unspecified)	i	-0.12
O=C(NC1CCCCC1)C(c1ccc2ncccc2c1)N(Cc1ccco1)C(=O)c1ccc2c(c1)OCCO2 (stereo unspecified)	i	1.3
C[C@H](NC(=O)c1ccccc1)C(=O)Nc1nc(-c2ccccn2)cs1	i	-0.06
CCN1CCC(=NNC(=O)c2ccc(C)c([N+](=O)[O-])c2)CC1	i	1.3
C[C@@H](C(=O)O)[C@H]1C[C@]1(C)[C@H](NC(=O)OCc1ccccc1)c1ccccc1	i	-2.2
O=C(CN1C(=O)C2C3C=CC(C3)C2C1=O)N1CCc2ccccc2C1 (stereo unspecified)	i	2.9
COc1ccccc1NC(=O)c1cc[n+]([O-])cc1	i	-0.6
CCn1cc(S(=O)(=O)Nc2cc(F)ccc2C)cn1	i	-0.69
CCN1CCSc2ccc(C(=O)NCc3ccccc3F)cc21	i	2.7
Cc1cc(C)c(OCCNC(=O)c2ccccc2Sc2ccccc2C#N)c(C)c1	i	-3.6
CCCC(=O)Nc1c(-c2ccccc2)c(=O)c(C)nn1-c1ccc(C)cc1	i	3
O=C1CSC(c2ccccc2)N1CC(O)c1ccc([N+](=O)[O-])cc1 (stereo unspecified)	i	-0.17
Cc1occc1-c1nnc(SCC(=O)NC2CC2)n1C	i	0.89
CC(=O)Nc1ccc(NC(=O)CSc2nncn2C)cc1	i	-0.59
COc1ccccc1C1/C(=C(\O)c2ccc3c(c2)OCCO3)C(=O)C(=O)N1CCCn1ccnc1 (stereo unspecified)	i	2.3
O=C(NCCCO)NC(=S)c1cccc2ccccc12	i	0.66
Fc1cccc(CCN2C(=S)NC[C@@H]2CC2CCCCC2)c1	i	0.6
O=C(O)Cn1c(O)c(C=Nc2ccccc2)sc1=S	i	0.11&-0.21
CCC1CCCCN1CCNC(=O)c1[nH]c(C)c(C(C)=O)c1C (stereo unspecified)	i	0.25
CCCCS(=O)(=O)CC(COc1ccccc1)OC(=O)c1ccccc1 (stereo unspecified)	i	1.1
Carrying on.
SMILES	KCNQ2 block	KCNQ2 block baseline
CCOc1ccc(NC(C(=O)Nc2cccc(C(C)=O)c2)c2ccccc2)cc1 (stereo unspecified)	i	0.13
CCn1nnnc1SCC(=O)Nc1cc(C)on1	i	2.3
Cc1cc(C)n(-c2nc3ccccc3c(=O)n2OCc2ccc(Cl)cc2)n1	-7.6*	0.46*
CCn1ncc([C@@H]2C[C@H]3CN(Cc4ccccc4C)C(=O)[C@]34CCCN24)c1C	i	-0.6
Cc1cc2nc(-c3ccc[nH]c3=O)n(Cc3ccccc3F)c2cc1C	i	0.11
C=CCN(C(=O)c1csnn1)C(C(=O)NCc1ccc(F)cc1)c1ccc(F)cc1 (stereo unspecified)	i	0.8
Cc1cc(C)c2c(-n3cccc3)c(C(=O)NNS(=O)(=O)c3ccc(Cl)cc3)sc2n1	i	-1.1
O=C(COC(=O)c1cc(-c2cccs2)nn1-c1ccccc1)Nc1cc([N+](=O)[O-])ccc1Cl	i	-0.26
COc1cc2nc(NC(=O)c3ccccc3)[nH]c(=O)c2cc1OC	i	0.63
CN1C(=O)C2(c3ccccc31)N(C)CC(c1ccccc1)C21SC(=S)N(Cc2ccco2)C1=O (stereo unspecified)	i	0.13
COc1cc(C2C3=C(CC(c4ccco4)CC3=O)Nc3ccccc3N2C(C)=O)cc(OC)c1OC (stereo unspecified)	i	-0.19
Cc1nnn(-c2nonc2N)c1C(=O)NNC(=O)c1ccc(Cl)c(Cl)c1	i	-0.01
CC(C)(C)c1csc(NC2=NS(=O)(=O)c3ccccc32)n1	i	-1.2
CCN1CCN(CCCNC(=O)C2CCN(c3nnc(-n4c(C)ccc4C)s3)CC2)CC1	i	0.19
COc1ccc(C(C[N+](=O)[O-])c2c(-c3ccccc3)cc3ccccn23)cc1OC (stereo unspecified)	i	-0.06
CCOC(=O)C1CCN(c2cc(C)nc3cc(-c4cccc(F)c4)nn23)CC1	i	-1.1
COc1cc(/C=N\Nc2nc3ccccc3[nH]2)cc(OC)c1OC	i	-0.73
CCOC(=O)C1C2C=CC(CC2)N1c1ccccc1 (stereo unspecified)	i	0.05
CCCCCC1(C)NC(=S)N(c2ccccc2)N1 (stereo unspecified)	i	1.9
Cc1ccc(S(=O)(=O)N2CCCCC2CCNC(=O)C(=O)NCc2cccnc2)cc1 (stereo unspecified)	i	0.75
CCOC(=O)C1=C(C)N=c2s/c(=C/c3cccc([N+](=O)[O-])c3O)c(=O)n2C1c1ccc(OC)cc1OC (stereo unspecified)	i	-0.16
Cc1cc(-c2ccccc2)nc2cc(C(=O)NCCCn3ccnc3)nn12	i	2.6
CC1(C)CC2CC(C)(CN2Cc2c(O)ccc3ccccc23)C1 (stereo unspecified)	i	0.03
Cc1cc(C)c(N2C(=O)CCCC2=O)c(Cl)c1	i	-1.8
CCN1CCN(C(=S)NC(=O)c2cccs2)CC1	i	-0.68
(list continues)
SMILES	KCNQ2 block	KCNQ2 block baseline
O=C1CC[C@H](O)CCN1[C@H](CSc1ccccc1)Cc1ccccc1	i	1.8
O=C(CSc1nc2ccsc2c(=O)n1CC1CCC(C(=O)O)CC1)NCCc1ccc(Cl)cc1 (stereo unspecified)	i	0.5
COc1ccccc1/C=C/C=N/n1c(-c2ccccn2)n[nH]c1=S	i	-1.1
C1CC(CN2CCOCC2)CN(c2nc3nonc3nc2N2CCSCC2)C1 (stereo unspecified)	i	0.73
O=C1/C(=C/c2cccnc2)SC(=S)N1NS(=O)(=O)c1ccccc1	i	0.77
O=C(NC(=S)Nc1ccc2oc(-c3ccncc3)nc2c1)c1ccccc1F	i	-1
Cc1nn(-c2ccccc2)c(Cl)c1/C=N/N1CCN(c2ccccn2)CC1	i	1
Cc1cc(=O)[nH]c(SCC(=O)NCC2CCCO2)n1 (stereo unspecified)	i	-0.23
O=C(N/N=C(/CC(=O)c1cccs1)C(F)(F)F)c1ccc(O)cc1	i	1.6
CC(=O)Nc1ccc(S(=O)(=O)NCCc2ccc(S(N)(=O)=O)cc2)cc1	i	-0.24
CC(C)(C)c1cnnn1-c1ccc(C(=O)CCl)cc1	i	0.39
CCNC(=O)CSc1nnc(-c2cc(-c3ccc(Cl)cc3)nc3ccccc23)o1	i	-0.22
CCOc1cc(Cl)c(S(=O)(=O)NCCCN2CCOCC2)cc1Cl	i	-0.47
COCCN(C(=O)CSc1ncc(C(F)(F)F)cc1Cl)c1c(N)n(Cc2ccccc2)c(=O)[nH]c1=O	i	0.5
O=C(COc1ccc(C2SCCS2)cc1)NNC(=O)C(Cl)Cl	i	0.37
CCOc1ccc2[nH]cc(C(=O)N3CCN(C4CCCCC4)CC3)c(=O)c2c1	i	1.7
Cc1ccc(C(=O)NC(=S)Nc2ccc(N3CCOCC3)cc2)cc1C	i	1.9
Cc1ccc(-c2cc(C(=O)Nc3cnn(C45CC6CC(CC(C6)C4)C5)c3)no2)cc1	i	-0.08
Cc1cc(C)cc(N2C(=O)CSC2c2cccs2)c1 (stereo unspecified)	i	2.2
O=c1cc(O)nc(SCc2ccccc2)n1-c1ccccc1	i	0.93
CC(C)N(CCNS(=O)(=O)c1ccc(Cl)cc1)C(C)C	i	0.1
CCOC(=O)Cn1c(=O)c2c(nc(Br)n2Cc2ccc(Cl)cc2)n(C)c1=O	i	-1.2
Cc1nn(Cc2ccc(Cl)c(Cl)c2)c(C)c1NC(=O)c1noc2c1CCCCC2	i	1.4
Cc1cc(NC(=O)CN2CCc3ccccc3C2)nc2c1c(=O)oc1ccccc12	i	-0.22
O=C(Cn1cnc([N+](=O)[O-])c1)NCc1ccc(F)cc1	i	4.7
(continued)
SMILES	KCNQ2 block	KCNQ2 block baseline
Cc1cccc(C(C)C)c1NC(=O)c1ccc(COc2ccc3c(C)cc(=O)oc3c2)cc1	i	1.4
CCOc1ccc(OCC(=O)Nc2ccccc2N2CCCC2)cc1	i	0.17
N=c1oc2ccc(Br)cc2cc1C(=O)NC1CCCCCC1	i	-0.22
CN(CCCOc1ccccc1F)Cc1ccccc1	i	-0.53
COc1ccccc1CC(=O)NNC(=O)c1ccc(C(C)(C)C)cc1	i	-0.02
CCOC(=O)c1c(C2CC2)csc1NC(=O)COC(=O)c1ccc[n+]([O-])c1	i	0.29
O=C(NC1CCCCC1)c1ccccc1C(F)(F)F	i	-0.84
CC(=O)c1ccc(NC(=O)C(C)OC(=O)C2CCN(c3ccc(C(F)(F)F)cn3)CC2)cc1 (stereo unspecified)	i	-0.39
CCC1CCCCN1CCCNC(=O)c1cn(C)c2ccc(S(=O)(=O)N(C)C3CCCCC3)cc2c1=O (stereo unspecified)	i	0.06
CN1C(=O)/C(=C\c2ccco2)N=C1c1ccc(Cl)cc1Cl	i	0.65
COc1ccc(NC(=O)NCCCN2CCC(Cc3ccccc3)CC2)cc1	i	2.7
COc1ccc(Cl)cc1NC(=S)N1CCN(c2ccccn2)CC1	i	-0.52
Cc1ccc(C(=O)N(CCC2=CCCCC2)c2c(N)n(Cc3ccccc3)c(=O)[nH]c2=O)o1	i	0.02
O=C(CSc1ccccc1)N1CCCC(N2CCN(c3ccc(F)cc3)CC2)C1 (stereo unspecified)	i	-0.19

Compound profiles (already shown). Values in the order: KCNQ2 block | KCNQ2 block baseline
`CN1C(=O)/C(=C\c2ccco2)N=C1c1ccc(Cl)cc1Cl` in the list: i | 0.65
`COc1ccccc1CC(=O)NNC(=O)c1ccc(C(C)(C)C)cc1` in the list: i | -0.02
`CC(=O)c1ccc(NC(=O)C(C)OC(=O)C2CCN(c3ccc(C(F)(F)F)cn3)CC2)cc1` (stereo unspecified) in the list: i | -0.39
`O=C(NC1CCCCC1)c1ccccc1C(F)(F)F` in the list: i | -0.84
`CCOC(=O)c1c(C2CC2)csc1NC(=O)COC(=O)c1ccc[n+]([O-])c1` in the list: i | 0.29

An excerpt from above in order of molar mass, rising:
SMILES	KCNQ2 block	KCNQ2 block baseline
COc1ccccc1CC(=O)NNC(=O)c1ccc(C(C)(C)C)cc1	i	-0.02
N=c1oc2ccc(Br)cc2cc1C(=O)NC1CCCCCC1	i	-0.22
COc1ccc(NC(=O)NCCCN2CCC(Cc3ccccc3)CC2)cc1	i	2.7
Cc1cccc(C(C)C)c1NC(=O)c1ccc(COc2ccc3c(C)cc(=O)oc3c2)cc1	i	1.4
CCC1CCCCN1CCCNC(=O)c1cn(C)c2ccc(S(=O)(=O)N(C)C3CCCCC3)cc2c1=O (stereo unspecified)	i	0.06

Assay outcomes from PubChem BioAssay.

An excerpt (hit frequency here may not be typical).
